KCNQ2 pot: potentiators of rat KCNQ2 potassium channel; O88943; CHO-K1 KCNQ2, FluxOR thallium flux fluorescence; hits give high values; B-score at 10 µM; 0.54% of 310,000 active; AID 2239;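 active means fluorescence ratio B-score at least 3 SD of library B-scores, with initial fluorescence B-score within 3 SD, cut at about 5.3 in these data; same plate scores as AID 2156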;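 further: B-score of peak minus minimum over baseline fluorescence ratio after K+ and Tl+ stimulus; positive B-score means potentiation of KCNQ2 with more thallium influx and brighter signal; only the inactives scoring about 0 or higher are listed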
Target sequence (O88943 whole entry, looked up): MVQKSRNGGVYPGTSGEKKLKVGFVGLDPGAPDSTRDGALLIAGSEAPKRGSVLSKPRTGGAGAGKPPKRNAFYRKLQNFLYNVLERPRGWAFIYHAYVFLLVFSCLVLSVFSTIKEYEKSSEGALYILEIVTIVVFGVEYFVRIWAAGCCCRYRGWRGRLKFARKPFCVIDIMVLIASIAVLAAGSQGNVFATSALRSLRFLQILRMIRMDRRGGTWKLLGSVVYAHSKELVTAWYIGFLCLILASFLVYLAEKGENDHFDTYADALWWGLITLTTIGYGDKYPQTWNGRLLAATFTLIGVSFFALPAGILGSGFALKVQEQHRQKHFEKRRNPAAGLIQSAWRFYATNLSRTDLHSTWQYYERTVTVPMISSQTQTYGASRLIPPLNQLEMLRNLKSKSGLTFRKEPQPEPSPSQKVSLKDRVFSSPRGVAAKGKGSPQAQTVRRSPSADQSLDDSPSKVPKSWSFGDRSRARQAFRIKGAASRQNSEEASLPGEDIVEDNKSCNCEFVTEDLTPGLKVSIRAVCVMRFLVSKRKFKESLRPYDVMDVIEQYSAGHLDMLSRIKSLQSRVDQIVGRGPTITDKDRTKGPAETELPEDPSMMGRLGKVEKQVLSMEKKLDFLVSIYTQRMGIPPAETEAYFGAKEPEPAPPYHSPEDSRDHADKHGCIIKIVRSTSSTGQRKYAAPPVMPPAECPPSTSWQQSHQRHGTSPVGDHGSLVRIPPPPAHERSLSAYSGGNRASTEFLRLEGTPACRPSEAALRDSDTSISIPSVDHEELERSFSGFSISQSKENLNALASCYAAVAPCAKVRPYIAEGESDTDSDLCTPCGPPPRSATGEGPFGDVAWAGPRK
KCNQ2 pot baseline: second read-out of KCNQ2 pot, no call of its own (marks repeat the call); B-score; compound at 10 µM; measured here: initial fluorescence intensity artifact check;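 brightness before thallium and not channel activity; 0 = typical well and far values either way flag optical interference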
* marks the source's active call; other numbers are inactive results. The list is partial, so the mix of outcomes need not match the whole.

| molecule | KCNQ2 pot | KCNQ2 pot baseline |
| --- | --- | --- |
| O=C(NCc1ccco1)c1ccc2nc3sc4c(c3c(=O)n2c1)CCCC4 | 2 | -2.2 |
| Cc1cccc(NC(=O)NNC(=O)c2c(Cl)c(C)nn2C)c1 | 0.44 | 1.1 |
| COc1ccc(OC)c(-c2csc(NC(=O)c3ccccc3F)n2)c1 | 2.8 | -1.5 |
| CC(=O)c1ccc(NC(=O)C(C)OC(=O)COc2ccc(C#N)cc2)cc1 (centres undefined) | 1.5 | 0.07 |
| CN(C)c1nc(Nc2ccccc2)nc(N(C)C)n1 | 0.23 | 0.35 |
| OC1CCCN(Cc2nc(Cc3ccccc3Cl)no2)C1 (centres undefined) | 0.07 | 0 |
| CC(=O)Nc1coc2ccc(Br)cc12 | 0.54 | -1.9 |
| COC(=O)c1c(NC(NC(=O)c2ccccc2)(C(F)(F)F)C(F)(F)F)sc2c1CCN(C)C2 | 0.86 | 0.06 |
| O=C(N=C1SC2CS(=O)(=O)CC2N1Cc1ccccc1)C1CCCO1 (centres undefined) | 1.7 | -1.1 |
| O=C(OCc1nnc(-c2ccccc2)o1)c1ccc([N+](=O)[O-])o1 | 1 | -2.9 |
| Cc1ccc(C(=O)Nc2ccc(N3CCN(S(C)(=O)=O)CC3)cc2)cc1C | 0.01 | -2.8 |
| C#CCOCCOCCOCCNc1nc(N2CCOCC2)nc(N2CCN(C(=O)[C@H](Cc3cc4ccccc4[nH]3)n3cc([C@@H](N)Cc4ccc(O)cc4)nn3)CC2)n1 | 0.08 | 0.13 |
| COc1ccc(-n2c(Cc3cccn3C)nnc2SCC(=O)Nc2ccccc2F)cc1 | 0.78 | 1.3 |
| COc1ccc(OCC(=O)NC(=S)Nc2ccc(S(=O)(=O)Nc3cc(OC)nc(OC)n3)cc2)cc1 | 1.8 | -1.1 |
| CCOC(=O)C1(Cc2ccc(OC)cc2)CCN(C(=O)CCn2cccn2)CC1 | 0.03 | 1.4 |
| O=C(c1ccccc1)c1ccc(NCCCn2ccnc2)c([N+](=O)[O-])c1 | 1.1 | 4.3 |
| CC1(c2nnc(-c3ccccc3)o2)CC(c2ccc([N+](=O)[O-])cc2)=NO1 (centres undefined) | 0.03 | -0.14 |
| Cc1nn(CCC(=O)NNC(=S)Nc2ccc([N+](=O)[O-])cc2)c(C)c1[N+](=O)[O-] | 0.06 | 0.05 |
| O=C(NC1CCN(Cc2ccccc2)CC1)C1CCCN(S(=O)(=O)c2cccc3nonc23)C1 (centres undefined) | 1.4 | -0.12 |
| CCc1ccccc1N(CC(=O)NCc1ccccc1)C(=O)CCC(=O)Nc1ccccn1 | 0.67 | 0.03 |
| COc1cccc(C2NC(=S)NC3=C2CCc2ccccc23)c1 (centres undefined) | 0.01 | 1.3 |
| CCCC(=O)Nc1c(C(=O)OCC)[nH]c2ccccc12 | 1.2 | -1.1 |
| CN1CCN(c2ccc(Cl)cc2NC(=O)CCN2C(=O)c3ccccc3C2=O)CC1 | 0.02 | -0.34 |
| COc1cccc(CN(C)C(=O)CNC(=O)c2ccc3c(c2)OCO3)c1OC | 0.6 | -3.1 |
| CCCCC(=O)NC(=S)Nc1cccc(NC(=O)c2ccco2)c1 | 0.69 | 0.75 |

Reprinted from the listing, three compounds:
| molecule | KCNQ2 pot | KCNQ2 pot baseline |
| --- | --- | --- |
| Cc1cccc(NC(=O)NNC(=O)c2c(Cl)c(C)nn2C)c1 | 0.44 | 1.1 |
| COc1ccc(OC)c(-c2csc(NC(=O)c3ccccc3F)n2)c1 | 2.8 | -1.5 |
| CC(=O)c1ccc(NC(=O)C(C)OC(=O)COc2ccc(C#N)cc2)cc1 (centres undefined) | 1.5 | 0.07 |

Additional entries:
| molecule | KCNQ2 pot | KCNQ2 pot baseline |
| --- | --- | --- |
| O=C(NC(=S)NCC1CCCO1)c1ccc(Cl)cc1Cl (centres undefined) | 0.08 | -0.94 |
| Cn1nc(C(=O)Oc2cc(=O)n(C)c3ccccc23)c2ccccc2c1=O | 0.64 | -1.1 |
| CCCCc1nc(NCCN)c(C#N)c2c1CSC(C)(C)C2 | 1.6 | -0.76 |
| CCCCNC(=O)C(=O)NCC1CCCN1S(=O)(=O)c1cccs1 (centres undefined) | 0.16 | -0.14 |
| O=C1C2CCCCN2C(=O)N1CCCCN1CCN(c2ccc([N+](=O)[O-])cc2)CC1 (centres undefined) | 0.59 | 1.5 |
| O=S(=O)(c1ccc(F)cc1)N1CCN(c2ccccn2)CC1 | 0.71 | -0.58 |
| COCC(=O)N1CCC(Oc2ccc(C(=O)NCCc3ccncc3)cc2)CC1 | 1.8 | 1.4 |
| COc1cccc(NC(=O)CC2COc3ccccc3O2)c1 (centres undefined) | 1 | -1.4 |
| Cn1c(C(=O)NCCc2ccsc2)cc2c(=O)n(C)c3ccccc3c21 | 0.51 | 2.9 |
| O=C(O)CN(c1ccc(F)cc1)S(=O)(=O)c1ccc2c(c1)OCCO2 | 0.16 | 0 |
| COC(=O)C1=C(CS(=O)(=O)c2ccc(C)cc2)NC(=O)NC1c1ccc(OC)c(OC)c1 (centres undefined) | 0.03 | -1.2 |
| COCCCNC(=O)c1ccc(N2CCOCC2)c(NS(=O)(=O)c2ccc(OC)cc2)c1 | 0.09 | 0.19 |
| COc1ccc(C(=O)NCc2cnn(C)c2C)cc1OC1CCN(C(C)C)CC1 | 0.42 | -0.03 |
| N#Cc1cccc(NC(=O)C2SC(=Nc3ccccc3)C(C(=O)N3CCOCC3)=C2N)c1 (centres undefined) | 2.1 | -1.4 |
| CNCCC1Sc2ccccc2Oc2ccccc21 (centres undefined) | 0.93 | -0.42 |
| COCCN(Cc1cc2cc(C)ccc2n2nnnc12)C(=S)Nc1cccc(C)c1 | 0.12 | -0.18 |
| COc1ccc(NC(=O)CSc2nnc3n2CCCCC3)cc1 | 0.69 | 1.1 |
| CC(C)Cn1c(N)c(C(=O)COC(=O)[C@H](C)NC(=O)c2ccccc2Cl)c(=O)n(C)c1=O | 0.9 | 1.1 |
| CSc1ccc(/C=C2\C(=N)N3N=C(CC(=O)N4CCCCC4)SC3=NC2=O)cc1 | 2 | 1.8 |
| CCOC(=O)c1ccc(NC(=S)N(CCCN(CC)CC)Cc2ccco2)cc1 | 0.61 | 0.01 |
| CCOc1ccc(-c2cc(N3C(=O)Nc4ccccc4N3O)n[nH]2)cc1 | 0.35 | 0.94 |
| CCC1CCc2c(sc(N)c2C(N)=O)C1 (centres undefined) | 0.75 | 1.1 |
| Cn1ncc2c(N3CCN(c4ccccc4F)CC3)ncnc21 | 1.1 | -0.8 |
| Clc1ccc(CN2CCN(c3ccccc3)CC2)cn1 | 1.1 | 0.61 |
| O=C(O)c1cc(S(=O)(=O)N2CCOCC2)ccc1N1CCOCC1 | 1 | -1.1 |

(next part)
| molecule | KCNQ2 pot | KCNQ2 pot baseline |
| --- | --- | --- |
| O=c1c2ccccc2nc(/C=C/c2cc(Br)ccc2O)n1CCCO | 2.7 | -0.58 |
| Cc1nc(N2CCOCC2)c2c3c(sc2n1)CCC3 | 0.49 | -1.1 |
| CCOc1cc(C2C(C(=O)O)c3cc(OCC)c(OCC)cc3C(=O)N2C)ccc1O (centres undefined) | 1.5 | -2 |
| O=C(CCC1CCCN(C(=O)Cn2cnnn2)C1)NCc1ccc(F)c(F)c1 (centres undefined) | 0.07 | -0.69 |
| CC(OC(=O)c1ccccc1CCc1ccccc1)C(N)=O (centres undefined) | 0.14 | 1.4 |
| O=C(Nc1nnc(C2CC2)s1)C1CC(=O)N(c2ccc3c(c2)OCCO3)C1 (centres undefined) | 1.2 | -0.47 |
| CC1=CC(C2CC(=O)N(c3ccccc3C)C2=O)CC2C(=O)N(c3ccccc3C)C(=O)C12 (centres undefined) | 0.04 | -0.03 |
| COc1ccc(S(=O)(=O)N2CCC(C(=O)Nc3ccccc3N3CCCC3)CC2)cc1OC | 1.3 | 0.4 |
| COc1ccc(/C=C2\SC(=S)N(CCC(=O)Nc3ccc(C(=O)O)cc3)C2=O)cc1 | 0.22 | 0.41 |
| COc1ccc(CC(=O)N2CC(C)CC(C)C2)cc1 (centres undefined) | 1.8 | -0.94 |
| CCC(=O)Nc1cccc(-n2nnnc2SCC(=O)c2ccc(C)c(C)c2)c1 | 3.2 | -1.4 |
| CC(O)CNc1nc2ccccc2n1CC(=O)NCC(F)(F)F (centres undefined) | 1.1 | 1.1 |
| COc1ccc(NC(=O)CN(CC(=O)Nc2ccc(OC)cc2)C(C)(C)CO)cc1 | 0.66 | -0.93 |
| CC(NC(=O)c1noc2c1CCCC2)c1ccccc1 (centres undefined) | 0.14 | 0.29 |
| CC(=O)Nc1ccccc1OCC(=O)c1ccc2c(c1)OCO2 | 0.27 | -1.5 |
| CC(C)C(=O)Nc1cccc(NC(=O)c2cc3ccccc3o2)c1 | 1.1 | 0.41 |

Some of these compounds in order of molar mass, smallest number first:
| molecule | KCNQ2 pot | KCNQ2 pot baseline |
| --- | --- | --- |
| CCC1CCc2c(sc(N)c2C(N)=O)C1 (centres undefined) | 0.75 | 1.1 |
| COc1ccc(CC(=O)N2CC(C)CC(C)C2)cc1 (centres undefined) | 1.8 | -0.94 |
| CC(NC(=O)c1noc2c1CCCC2)c1ccccc1 (centres undefined) | 0.14 | 0.29 |
| Cc1nc(N2CCOCC2)c2c3c(sc2n1)CCC3 | 0.49 | -1.1 |
| Clc1ccc(CN2CCN(c3ccccc3)CC2)cn1 | 1.1 | 0.61 |
| CC(OC(=O)c1ccccc1CCc1ccccc1)C(N)=O (centres undefined) | 0.14 | 1.4 |
| Cn1ncc2c(N3CCN(c4ccccc4F)CC3)ncnc21 | 1.1 | -0.8 |
| CC(C)C(=O)Nc1cccc(NC(=O)c2cc3ccccc3o2)c1 | 1.1 | 0.41 |
| CC(O)CNc1nc2ccccc2n1CC(=O)NCC(F)(F)F (centres undefined) | 1.1 | 1.1 |
| CCOc1ccc(-c2cc(N3C(=O)Nc4ccccc4N3O)n[nH]2)cc1 | 0.35 | 0.94 |
| O=C(O)c1cc(S(=O)(=O)N2CCOCC2)ccc1N1CCOCC1 | 1 | -1.1 |
| O=C(Nc1nnc(C2CC2)s1)C1CC(=O)N(c2ccc3c(c2)OCCO3)C1 (centres undefined) | 1.2 | -0.47 |
| O=C(CCC1CCCN(C(=O)Cn2cnnn2)C1)NCc1ccc(F)c(F)c1 (centres undefined) | 0.07 | -0.69 |
| O=c1c2ccccc2nc(/C=C/c2cc(Br)ccc2O)n1CCCO | 2.7 | -0.58 |
| COc1ccc(NC(=O)CN(CC(=O)Nc2ccc(OC)cc2)C(C)(C)CO)cc1 | 0.66 | -0.93 |
| CCOC(=O)c1ccc(NC(=S)N(CCCN(CC)CC)Cc2ccco2)cc1 | 0.61 | 0.01 |
| CSc1ccc(/C=C2\C(=N)N3N=C(CC(=O)N4CCCCC4)SC3=NC2=O)cc1 | 2 | 1.8 |
| CCOc1cc(C2C(C(=O)O)c3cc(OCC)c(OCC)cc3C(=O)N2C)ccc1O (centres undefined) | 1.5 | -2 |
| CC1=CC(C2CC(=O)N(c3ccccc3C)C2=O)CC2C(=O)N(c3ccccc3C)C(=O)C12 (centres undefined) | 0.04 | -0.03 |
| CC(C)Cn1c(N)c(C(=O)COC(=O)[C@H](C)NC(=O)c2ccccc2Cl)c(=O)n(C)c1=O | 0.9 | 1.1 |
| COc1ccc(S(=O)(=O)N2CCC(C(=O)Nc3ccccc3N3CCCC3)CC2)cc1OC | 1.3 | 0.4 |

From PubChem BioAssay
